Bioassay records deposited in PubChem BioAssay by National Center for Advancing Translational Sciences (NCATS).
Vaccinia mCherry = vaccinia inhibition (mCherry reporter). AID 720579. 310,000 tested, 0.63% active. Vaccinia virus mCherry reporter infection, fluorescence; about a quarter of the inactives have no number. Potency, µM (top dose mostly 36.5 µM), for inactives: top-dose activity change, negative = inhibition, hits mostly inhibitors; active = well fitted inhibition curve with a large enough effect; inconclusive = small, poorly fitted or top-dose-only effect; inactive = no such curve, though single readings can be large or run the other way; tested in A549 cells; further: nearly all actives have a fitted effect of over 35% in size; inactives centre near -10
VACV Venus inh = vaccinia inhibition (Venus reporter); Vaccinia virus Venus reporter expression, fluorescence; Potency, µM (series often up to 36.5 µM), for inactives: at the highest dose activity change, negative = inhibition, actives largely listed as inhibitors; 330,000 tested, 0.46% active; AID 720580; active means well fitted inhibition curve with a large enough effect; inconclusive means small, poorly fitted or top-dose-only effect; inactive means no such curve, though single readings can be large or run the other way; tested in A549 cells; further: nearly all actives have a fitted effect of over 30% in size; inactives centre near -10
* hit, by the source's call; i = inactive; u = inconclusive; x = not tested or not shown; [ ] = dose if it differs, or a comment. On the % scale 0 is the no-effect control and ±100 the full control effect; potency means the concentration at half of the fitted maximal effect.

| compound | Vaccinia mCherry | VACV Venus inh |
| --- | --- | --- |
| CC(C)(C)n1ncc2c(=O)n(CC(=O)N3CCN(c4ccccc4)CC3)cnc21 | x | -20% |
| NC(=O)c1ccsc1NC(=O)COC(=O)c1ccccc1NCc1ccco1 | -12% | -9% |
| C=CC[n+]1c(-c2ccc(C)cc2)csc1Nc1c(C)n(C)n(-c2ccccc2)c1=O | -27% | -12% |
| CCCc1cc(-c2n[nH]c(=S)n2CC(C)C)cs1 | -17% | -18% |
| COc1ccc(NC(=O)CN(C)C(=O)c2cccnc2Sc2ccc(C)c(C)c2)cc1 | i | -17% |
| CCc1ccc(NC(=O)C(C)OC(=O)C2CCC(=O)N2)cc1 (stereo not drawn) | i | 0% |
| Cc1c(Cc2ccc3c(c2)OCO3)sc(NC(=O)c2cccc3ccccc23)c1C(N)=O | u | u |
| COC(=O)c1cc2oc3ccccc3c2n1CC(=O)Nc1cccc(SC)c1 | -17% | -6% |
| COC(=O)c1ccc(NC(=O)CSc2nnc3c4ccccc4n(C(C)C)c3n2)cc1 | 8% | 7% |
| CCC(C(=O)N1CC2(C)CC1CC(C)(C)C2)N1C(=O)c2ccccc2C1=O (stereo not drawn) | -5%[1.46 µM] | -27% |
| COc1cccc(NC(=O)CSc2nc3ccccc3c(=O)n2Cc2cccs2)c1 | i | -12% |
| CCN(CCS(=O)(=O)c1ccc(Cl)cc1)C(=O)Nc1ccccc1 | -19% | -9% |
| C[C@H](NC(=O)c1nc[nH]c1C(=O)N[C@H](C)c1ccccc1)C(=O)OC(C)(C)C | u | -30% |
| COC(=O)CCP(=O)(O)Cc1ccccc1CP(=O)(O)CCC(=O)OC | -14% | -7% |
| COc1ccc(/C=N/n2cnc3scc(-c4cccs4)c3c2=O)cc1OC | -19% | -7% |
| O=C(Nc1ccc(S(=O)(=O)N2CCCC2)cc1)C1COc2ccccc2O1 (stereo not drawn) | -7% | -1% |
| Cc1ccc([C@H]2C(C(=O)O)=CC[C@@H](c3ccc4c(c3)OCO4)N2S(=O)(=O)c2ccc(C)cc2)cc1 | i | -11% |
| COc1cc(CCC(=O)OCC(=O)Nc2ccc(F)c(F)c2F)cc(OC)c1OC | i | 6% |
| COc1ccc(NC(=O)CSc2oc(-c3cccs3)nc2S(=O)(=O)c2ccc(C)cc2)c(OC)c1 | -19% | -18% |
| COc1cc(S(=O)(=O)NCc2ccccc2Cl)ccc1-n1cnnn1 | -11% | -5% |
| NC(=O)c1ccc(NC(=O)COC(=O)c2cc3ccccc3cc2O)cc1 | -6% | -21% |
| CC(NS(=O)(=O)c1ccc(Br)cc1)C(=O)NCc1ccco1 (stereo not drawn) | i | -19% |
| O=C(O)CN1C(=O)c2ccc(Oc3ccc([N+](=O)[O-])cc3)cc2C1=O | -8% | -5% |
| Cc1ccc2c(cnn2C(=O)CCC(=O)N2CCCCC2)c1 | -4% | -12% |
| Cc1cccc(C)c1-n1nnnc1C(c1ccnc2ccccc12)N1CCN(C/C=C/c2ccccc2)CC1 (stereo not drawn) | -1% | -25% |
| Cc1ccc(-c2c3c(=O)n(C)c(=O)n(C)c3cn2-c2cc(C)ccc2O)cc1 | -11% | -14% |
| CC1CN(S(=O)(=O)c2cccc(C(=O)NCCCn3ccnc3)c2)CC(C)O1 (stereo not drawn) | -4% | -4% |
| O=C1C2C(c3ccccc3)CC=CC2[C@H](c2cccc([N+](=O)[O-])c2)N1Cc1ccccc1 (stereo partly drawn) | -21% | -30% |
| COc1cccc(-c2nn(-c3ccccc3)cc2C(=O)Nc2nccs2)c1 | -9% | -29% |
| COc1ccc(S(=O)(=O)N(CC(=O)NCc2ccncc2)Cc2ccccc2)cc1 | -6% | -4% |
| Cc1cc(C)cc(NC(=O)Oc2ccccc2N2CCCCC2)c1 | -4% | 7% |
| OCCCNc1nc(-c2ccc(Br)cc2)nnc1-c1ccc(Cl)cc1 | u | u |
| CCC(=O)N1CCN(c2ccccc2NC(=O)COc2cccc(C)c2C)CC1 | -12% | -3% |
| Cc1cccc(C(=O)NC2CCN(C(=O)Nc3ccccc3C)CC2)c1 | 12% | -19% |
| Cc1ccc(S(=O)(=O)N[C@@H](CC(C)C)C(=O)N2CCC(C(=O)N[C@@H](Cc3ccccc3)C(=O)O)CC2)cc1 | -5% | 3% |
| Cc1ccc(N(CC(C)C)S(=O)(=O)c2nnc(NC(=O)c3cccs3)s2)cc1 | -25% | -21% |
| Cc1cc(C)c(NC(=O)Cn2c(=O)n(CCc3ccccc3)c(=O)c3ccccc32)c(C)c1 | -5% | -11% |
| Cc1cc(C)n(CCNC(=O)[C@H]2O[C@@H](n3ccc(N)nc3=O)[C@H](O)[C@@H]2O)n1 | 21% | 0% |
| Cc1ccc(NC(=O)Cn2nnc3ccccc32)c(C)c1 | 4% | 0% |
| O=C(Cn1nc(-c2ccccc2)ccc1=O)Nc1ccc(-n2cnnn2)cc1 | -3% | -9% |
| O=C(CN1C(=O)COc2ccc(S(=O)(=O)NC3CCCC3)cc21)Nc1ccc(Cl)cc1 | -14% | -12% |
| COC(=O)c1ccc(COc2ccc3c(c2)CCC3)o1 | i | -2% |
| COc1ccc(CN2CCN(C(=O)CCC(=O)Nc3nnc(C(F)(F)F)s3)CC2)cc1F | -12%[7.34 µM] | 8%[7.34 µM] |
| COc1cc(C(=O)NCCOc2cc(C)ccc2C(C)C)cc(OC)c1OC | -10% | -29% |
| O=C1CS/C(=N/N=C/c2cccs2)N1 | 5% | 5% |
| Cn1nc(/C=C/c2ccccc2)ccc1=O | -1% | -8% |
| C[C@H](NC(=O)C1CCN(S(=O)(=O)c2ccccc2)CC1)C(=O)NCc1ccccc1 | -13% | -7% |
| NC(=O)c1cc2ccncc2c2ccccc12 | -20% | u |
| N/C(CC(=O)NC1CCCCC1)=N\OCC(=O)Nc1ccc(Cl)c(Cl)c1 | -6% | -5% |
| CC(Oc1ccc2c3c(c(=O)oc2c1)CCC3)C(=O)NCc1cccnc1 (stereo not drawn) | -13% | -9% |

Shown with values under each structure: part of the list above.
Second line of a record: Vaccinia mCherry, VACV Venus inh
COC(=O)c1ccc(COc2ccc3c(c2)CCC3)o1
    i, -2%
COc1ccc(CN2CCN(C(=O)CCC(=O)Nc3nnc(C(F)(F)F)s3)CC2)cc1F
    -12%[7.34 µM], 8%[7.34 µM]
N/C(CC(=O)NC1CCCCC1)=N\OCC(=O)Nc1ccc(Cl)c(Cl)c1
    -6%, -5%
Cn1nc(/C=C/c2ccccc2)ccc1=O
    -1%, -8%
CC(Oc1ccc2c3c(c(=O)oc2c1)CCC3)C(=O)NCc1cccnc1 (stereo not drawn)
    -13%, -9%
NC(=O)c1cc2ccncc2c2ccccc12
    -20%, u

(cont.)
| compound | Vaccinia mCherry | VACV Venus inh |
| --- | --- | --- |
| COc1ccccc1C(=O)Nc1c2c(nn1-c1cccc(C)c1C)CS(=O)(=O)C2 | -33% | -24% |
| CNC(=O)C(=O)NCC(c1ccc2c(c1)OCO2)N1CCOCC1 (stereo not drawn) | -4% | 7% |
| CCOc1ccc(-n2c(=O)c3c(C)c(C)sc3n(Cc3ccccc3C)c2=O)cc1 | 4% | 4% |
| COc1ccc(C(=O)NCC(=O)OCC(=O)N2CC(C)OC(C)C2)cc1OC (stereo not drawn) | -4% | 1% |
| Cc1ccc(S(=O)(=O)N2CCOC2CNC(=O)C(=O)NCc2ccccn2)cc1 (stereo not drawn) | i | -11% |
| CC(=O)Nc1ccc(NC(=O)CSc2cn(CC(=O)N(C(C)C)C(C)C)c3ccccc23)cc1 | -7% | -9% |
| CCc1ccc(NC(=O)CNC(=O)c2nn(-c3ccc(OC)cc3)c(=O)c3ccccc23)cc1 | -3% | 3% |
| CC1CCn2c(nc3cc(C(=O)NCCc4ccc(Cl)cc4)ccc32)C1 (stereo not drawn) | -2% | -9% |
| COC(=O)[C@@]12C[C@@H](CC(=O)N3CCN(C(=O)c4ccco4)CC3)C(=O)N(Cc3ccccc3)C1=CCC(C)(C)C2 | -12% | -24% |
| CCOc1ccc(CCNC(=O)COC(=O)CSc2ccc(C)cc2)cc1OCC | -18% | -7% |
| CC(=O)c1cccc(NC(=O)C2CCN(S(=O)(=O)c3ccc4c(c3)oc(=O)n4C)CC2)c1 | 1% | 1% |
| CC(=O)Nc1cccc(NC(=O)c2cc(-c3ccccn3)nc3ccc(Cl)cc23)c1 | 0% | 0% |
| COc1ccc(C(=O)NC(=S)Nc2ccc3c4c(cccc24)CC3)cc1OC | -15% | -5% |
| Cn1cc(Br)c(C(=O)Nc2sc3c(c2C(N)=O)CCCC3)n1 | u | -26% |
| CCN(CCn1cccn1)Cc1nc(-c2ccc(C(=O)OC)cc2)no1 | -3% | -3% |
| Cc1ccc(NC(=O)N2CCCN(Cc3ccc(F)cc3)C2)cc1C | x | -23% |
| O=S(=O)(NCCc1csc2nc(-c3ccc(F)cc3)nn12)c1ccc(Oc2ccccc2)cc1 | -22% | -19% |
| CC(=O)NCCNc1nc(NCc2cccs2)nc2ccsc12 | i | -12% |
| COc1ccc(N=C2C(=O)N3CCCc4cccc2c43)cc1 | i | -10% |
| CCc1ccccc1Nc1sc(C(=O)c2cccc(OC)c2)c(N)c1S(=O)(=O)c1ccccc1 | -15% | -24% |
| Cc1ccc(C2Nc3cc(C)c(C)cc3-n3c(-c4ccccc4)c4c(=O)n(C)c(=O)n(C)c4c32)o1 (stereo not drawn) | -19% | -13% |
| CNC(=O)NC(O)C(Cl)(Cl)Cl (stereo not drawn) | i | -2% |
| Clc1ccc(SCc2cc(-c3ccccc3)no2)cc1 | x | -20% |
| CC(=O)c1cccc(NC(=O)Cn2c(SCC(=O)Nc3ccc(F)cc3)nc3ccccc32)c1 | -10% | -11% |
| CC(=O)Nc1sc(C)c(C)c1C(=O)OCC(=O)N(CCC#N)c1cc(C)cc(C)c1 | -14% | -2% |
| Cc1nc(N)sc1C(=O)OCC(C)C | -3% | -12% |
| CSc1ccccc1CNc1nc(NCC2CC2)nc2ccsc12 | u | u |
| CCC(=NC(CC)CO)C1=C(O)CC(C)(C)CC1=O (stereo not drawn) | -8% | -10% |
| COc1cccc(NC(=O)N(C)C[C@@H]2OCc3cnnn3CCCC(=O)N([C@@H](C)CO)C[C@H]2C)c1 | -19% | -11% |
| COC(=O)c1c(-c2ccc3ccccc3c2)csc1NC(=O)Cc1ccc(OC)c(OC)c1 | x | u |
| CC(C)NS(=O)(=O)c1ccc2c(c1)oc(=O)n2C | -7% | -8% |
| Cc1ccc(NC(=O)C(Cc2ccccc2)NS(=O)(=O)c2ccc3c(c2)oc(=O)n3C)cc1F (stereo not drawn) | 4% | 9% |
| C#CCSc1nnc(-c2ccc([N+](=O)[O-])cc2)o1 | u | u |
| Cc1nn(Cc2ccc(Cl)cc2)c(C)c1NC(=O)Cn1nc([N+](=O)[O-])c(Cl)c1C | x | -8% |
| Cc1cnn(CCC(=O)NNC(=S)NCC(C)C)c1 | -9% | -4% |
| Cc1ccc(-n2c(SCC(=O)NCc3ccco3)nc3sc4c(c3c2=O)CC(C)(C)SC4)cc1 | -3% | -15% |
| O=C(Cc1c(F)cccc1Cl)N/N=C/c1cccs1 | -2% | -23% |
| COc1ccc(S(=O)(=O)NC(C)c2ccccc2)cc1C(=O)N1CCCCC1 (stereo not drawn) | -8% | -15% |
| Cc1ccc2nc(C)c(C(=O)O)cc2c1 | -10% | -11% |
| O=C(Nc1ccc(Cl)cn1)c1ccc(COCC(F)(F)C(F)F)o1 | -18% | -1% |
| O=S(=O)(Nc1cccc(-c2nc3cccnc3s2)c1)c1ccc2c(c1)OCCO2 | -4% | -21% |
| Cc1cc(Br)ccc1NC(=O)c1ccccc1-c1ccccc1 | -3% | -14% |
| CCOC(=O)c1cc(S(=O)(=O)N2CCN(c3cccc(OC)c3)CC2)[nH]n1 | -15% | -7% |
| C=CCN1C(=O)C2(C(C#N)=C(N)Oc3n[nH]c(CCC)c32)c2ccccc21 (stereo not drawn) | -21% | -18% |
| C=CC[C@@H](CC(=O)N[C@@H](CO)Cc1ccccc1)C(=O)N[C@H](COC(=O)[C@H](CC=C)CC(=O)OC(C)(C)C)Cc1ccccc1 | -14% | u |
| O=c1sc2ccccc2n1COc1ccccc1 | -10% | -12% |
| CC(=O)N1N=C(C)CC1c1ccc(OCc2ccccc2)cc1 (stereo not drawn) | i | -20% |
| O=C(COc1ccc2ccccc2c1)N1CCN(C(=O)c2ccc([N+](=O)[O-])cc2)CC1 | -16% | -7% |
| CCNC(=O)c1ccc2c(c1)S(=O)(=O)c1ccccc1C2=O | i | -18% |
| COc1cc(C)c(CN2CC=C(c3ccc(F)cc3)CC2)cc1C | i | -9% |

Later entries.
| compound | Vaccinia mCherry | VACV Venus inh |
| --- | --- | --- |
| CC(C)(C)c1ccc(C(=O)N2CCN(C(=O)c3ccco3)CC2)cc1 | i | -17% |
| COc1ccc(N2CCN(C(=O)c3ccc(CS(=O)c4cccc(Cl)c4)o3)CC2)cc1 (stereo not drawn) | -12% | -28% |
| CC(C)C(=O)Nc1ccc(NC(=S)NC(=O)c2ccc([N+](=O)[O-])cc2)cc1 | i | -2% |
| CCN(CC)c1ccc(CNc2nnnn2C)cc1 | -13% | -4% |
| COC(=O)c1ccc(NC(=O)c2cc(S(=O)(=O)N3CCC(C)CC3)cn2C)cc1 | -5% | -10% |
| Cc1cc(C)c(C#N)c(Oc2ccccc2Br)n1 | i | -1% |
| CCC(=O)N1N=C(c2cccs2)CC1c1ccco1 (stereo not drawn) | i | -12% |
| CCCn1c(SCC(=O)N2N=C3/C(=C/c4ccc(OC)cc4)CCCC3C2c2ccc(OC)cc2)n[nH]c1=O (stereo not drawn) | u | u |
| CCn1ccc2c(OCC(=O)NCc3ccccc3)cccc2c1=O | -6% | -4% |
